# Screening results deposited in PubChem BioAssay by National Center for Advancing Translational Sciences (NCATS).
# Vaccinia mCherry: vaccinia inhibition (mCherry reporter); AID 720579; 310,000 tested, 0.63% active; Potency, µM (doses to about 36.5 µM), without a hit: top-dose activity change, negative = inhibition, usual class: inhibitors; Vaccinia virus mCherry reporter infection, fluorescence; about a quarter of the inactives have no number; active = well fitted inhibition curve with a large enough effect; inconclusive = small, poorly fitted or top-dose-only effect; inactive = no such curve, though single readings can be large or run the other way; tested in A549 cells; also: nearly all actives have a fitted effect of over 35% in size; inactives centre near -10
# Vaccinia Venus: vaccinia inhibition (Venus reporter). Potency, µM (top dose mostly 36.5 µM), for inactives: at the highest dose activity change, negative = inhibition, actives largely listed as inhibitors. Vaccinia virus Venus reporter expression, fluorescence. 330,000 tested, 0.46% active; active means well fitted inhibition curve with a large enough effect; inconclusive means small, poorly fitted or top-dose-only effect; inactive means no such curve, though single readings can be large or run the other way; tested in A549 cells; also: nearly all actives have a fitted effect of over 30% in size; inactives centre near -10
# * hit, by the source's call; i = inactive; u = inconclusive; x = not tested or not shown; & = joins results of further samples; [ ] = another dose, or the depositor's remark. % is scaled to controls: 0 for no effect and ±100 for the full control effect; potency is read from the fitted curve at half-maximal effect.
no.	mol	Vaccinia mCherry	Vaccinia Venus
1	CCc1nc2c(C#N)c(-c3ccc(Cl)cc3)ccn2n1	-29%	-12%
2	COc1cccc(C(=O)N2CCn3c2nc2ccccc23)c1	i	-13%
3	Cc1cccc(N(Cc2cc3ccccc3[nH]c2=O)C(=O)c2cccs2)c1	-30%	-12%
4	Cc1ccc(NC(=S)N2CCN(c3ccccc3F)CC2)c(C)c1	-1%	-13%
5	CC(=O)c1cccc(-c2ccnc3c2CC(C(=O)NCc2ccc(N4CCN(C)CC4)cc2)O3)c1 (centres undefined)	i	-16%
6	Cn1c(=O)c2cc(NC(=O)CCc3ccc(O)cc3)ccc2n1Cc1cccc(C(F)(F)F)c1	u	u
7	CC(C)OC(=O)c1cc(NC(=S)Nc2ccc([N+](=O)[O-])cc2)cc(C(=O)OC(C)C)c1	-8%	-17%
8	O=C(NC(=S)Nc1ccc(Cc2ccncc2)cc1)c1ccccc1	-12%	-21%
9	COC1=CC(=O)OC(c2ccccc2)C1 (centres undefined)	-9%	-4%
10	COc1ccccc1N(CC(=O)N1CCN(Cc2ccccc2)CC1)S(=O)(=O)c1ccccc1	i	-20%
11	Cc1cccc(NC(=O)CCN2CCN(C/C=C/c3ccccc3)CC2)c1	-27%	-19%
12	COc1ccc(NC(=O)c2ccco2)cc1S(=O)(=O)N1CCCCC1	-4%	-15%
13	CC(=O)c1c(C)[nH]c(C(=O)CSc2ncnc3sc(-c4ccccc4)cc23)c1C	-25%	-20%
14	COc1ccc(CCNC(=O)CSc2c[nH]c3ccccc23)cc1OC	i	-1%
15	CCOc1ccc(NC(=O)CN(c2ccc([N+](=O)[O-])cc2)S(=O)(=O)c2ccccc2)cc1	u	u
16	O=C(NCc1cccs1)c1cnc2sccn2c1=O	i	-19%
17	CCOc1nc(-c2ccccc2)ncc1Oc1ccccc1	-1%	-20%
18	COc1ccc(OC)c(CNC(=O)C2CCCN(c3ncnc4onc(-c5ccc(F)cc5)c34)C2)c1 (centres undefined)	-19%	-10%
19	O=C(c1sc2ccccc2c1Cl)N1CCN(c2ccc(F)cc2)CC1	-4%	-3%
20	COc1ccc(C(=O)NC(C)c2nnc(SCC(=O)Nc3nc4ccccc4s3)n2C)cc1 (centres undefined)	x	-20%
21	CCCc1nc2oc3ccccc3c(=O)c2c(=O)n1-c1ccccc1	i	-8%
22	COc1ccc(C(=O)Nc2ccc3ccccc3c2)c(OC)c1	-12%	-21%
23	COc1ccc(NC(=O)CSc2nc(N)c(C#N)cc2C#N)cc1	-3%	-9%
24	CCCN(CC1CC1)C(=S)NC(=O)c1ccc(S(=O)(=O)N2CCOCC2)cc1	-1%	-13%
25	CC(C)C(c1nnnn1Cc1ccc(F)cc1)N1CCSCC1 (centres undefined)	-13%	-6%
26	CCNC(=S)/N=C(/Nc1ccccc1)Nc1nc(C)cc(C)n1	u	-26%
27	CCOP(=O)(OCC)C(NC(=O)Nc1ccccc1)c1ccccc1 (centres undefined)	-3%	0%
28	O=C(c1ccc2c(=O)n(CC3CCCO3)c(=S)[nH]c2c1)N1CCN(c2ccccc2)CC1 (centres undefined)	-7%	-3%
29	COc1ccc(CNC(=O)c2c(O)c3cc(OC)c(OC)cc3[nH]c2=O)cc1OC	-22%	-6%
30	COC(=O)C1=C(c2ccc(OC)c(OC)c2)C[C@@H]2CC[C@H]1N2C(=O)N1CCOCC1	-19%	-5%
31	Cn1c(=O)c2c(n3ncnc13)NC(=O)CC2c1cccc(F)c1 (centres undefined)	6%	-5%
32	CCC1CCCCN1CCN1C(=O)C2C(C(=O)Nc3ccc(OC)cc3)C3C=CC2(O3)C1C(=O)NC1CCCCC1 (centres undefined)	-23%	-20%
33	CCCCN(C)CCCNC(=O)c1cc(=O)[nH]c2ccc(S(=O)(=O)N3CCCCC3)cc12	-7%	-13%
34	COc1cc(OC)c(C(=O)Nc2ncn[nH]2)cc1OC	-13%	-7%
35	C#CCNC(=O)C1=C[C@@H](C2CCCCC2)[C@H](CCCO)[C@@H](OCC)O1	-3%	-16%
36	CC(=O)c1ccc(N2CCN(S(=O)(=O)c3ccc4c(c3)NC(=O)CO4)CC2)cc1	i	-11%
37	CCC(=O)Nc1nc(C)nc(C)c1C(C)=O	x	-34%
38	Cc1ccccc1C(=O)N/C(=C/c1ccc(-c2cccnc2Cl)o1)C(=O)NCCCN1CCN(C)CC1	-11%	-12%
39	CCN1CCCC(NC(=O)c2scc3c2CCCC3)C1 (centres undefined)	-9%	-6%
40	Cc1sc(NC(=O)C2C3CCC(C3)C2C(=O)O)c(C(N)=O)c1-c1ccc(C(C)(C)C)cc1 (centres undefined)	i	-13%
41	CCN(CC)C(=O)Cn1cc(C(=O)C(=O)N2CCN(Cc3ccc4c(c3)OCO4)CC2)c2ccccc21	-29%	-15%
42	O=C(NCc1ccccc1)c1cccc(COc2cc(Cl)ccc2Cl)c1	i	-22%
43	O=C(N/N=C\c1c(O)ccc2ccccc12)c1ccc(S(=O)(=O)N2CCCCC2)cc1	-9%	0%
44	Cc1cc(C(=O)N/N=C/c2cc(Br)ccc2OC(=O)c2ccccc2Cl)n[nH]1	6.3µM*	u
45	COCCNC(=O)C1CCCN(C(=O)COc2ccc(C(C)(C)C)cc2)CC1 (centres undefined)	i	5%
46	COc1ccc(Cl)c(-c2cc(C(=O)Nc3ccccc3)[nH]n2)c1	i	-10%
47	O=C1/C(=C\c2cccnc2)CCc2ccccc21	x	-25%
48	Cc1ccc2nc(-c3ccccn3)cc(C(=O)Nc3ccc(S(=O)(=O)N4CCOCC4)cc3)c2c1	1%	-2%

# A different layout for some results above.
48. Cc1ccc2nc(-c3ccccn3)cc(C(=O)Nc3ccc(S(=O)(=O)N4CCOCC4)cc3)c2c1
  Vaccinia mCherry: 1%
  Vaccinia Venus: -2%

41. CCN(CC)C(=O)Cn1cc(C(=O)C(=O)N2CCN(Cc3ccc4c(c3)OCO4)CC2)c2ccccc21
  Vaccinia mCherry: -29%
  Vaccinia Venus: -15%

40. Cc1sc(NC(=O)C2C3CCC(C3)C2C(=O)O)c(C(N)=O)c1-c1ccc(C(C)(C)C)cc1 (centres undefined)
  Vaccinia mCherry: i
  Vaccinia Venus: -13%

38. Cc1ccccc1C(=O)N/C(=C/c1ccc(-c2cccnc2Cl)o1)C(=O)NCCCN1CCN(C)CC1
  Vaccinia mCherry: -11%
  Vaccinia Venus: -12%

# (more compounds)
no.	mol	Vaccinia mCherry	Vaccinia Venus
49	c1ccc2sc(N3CCCCC3)nc2c1	i	-7%
50	COc1cc(/C=C/C(=O)OCC(=O)Nc2cc(S(=O)(=O)N(C)C)ccc2Cl)ccc1O	-8%	-6%
51	COc1ccc(N/C=C/C(=O)c2ccc(Cl)cc2)cc1	i	-15%
52	NC(=O)c1cc(S(=O)(=O)N2CCN(c3ccc(F)cc3)CC2)cs1	-10%	-14%
53	CCCCOc1ccc(C(=O)NCCc2sc(-c3ccc(OC)c(OC)c3)nc2C)cc1	u	-25%
54	COc1ccc(OC)c(NC(=O)/C=C/c2ccc(C)o2)c1	-4%	-8%
55	Cc1ccc(C(C)C)c(OCC(=O)OCC(=O)NC2CCS(=O)(=O)C2)c1 (centres undefined)	i	2%
56	CCN(C(=S)Nc1ccc(Oc2ccccc2)cc1)c1ccccc1	u	-14%
57	CN(c1cccc(NC(=O)CN(c2cccc(Cl)c2)S(=O)(=O)c2ccccc2)c1)S(C)(=O)=O	u	u
58	C/C(=N/NC(=O)c1ccncc1)c1c[nH]c2ccccc12	i	1%
59	O=C(O)CCn1cc(/C=C\C(=O)c2ccc(Cl)cc2)c(-c2cccc(Br)c2)n1	-12%	-14%
60	O=C(Nc1ccc(OCc2ccccc2)cc1)Nc1ccccc1C(=O)NCCCN1CCOCC1	i	-7%
61	Cc1c(C(=O)N(C)CCCCN2CCOCC2)oc2c(F)cccc12	i	-1%
62	CC(C)NC(=O)c1ccc(C2SCC(=O)N2Cc2ccccc2)cc1 (centres undefined)	i	0%
63	CCN(CC)C(=O)Cn1cnc2sc(C(=O)N3CCN(Cc4ccc5c(c4)OCO5)CC3)c(C)c2c1=O	-7%	-3%
64	CNC(=O)C[C@H]1C(=O)N(c2ccc(OC)cc2)C[C@@H]1Cc1ccccc1	i	-5%
65	O=C1NC(Cc2ccccc2)C(=O)N1CC(=O)N1CCCc2ccccc21 (centres undefined)	0%	-2%
66	O=C(Nc1ccc(F)cc1)[C@@H](c1ccccc1)N1Cc2ccccc2C1=O	-2%	4%
67	CN(C)C(CNC(=O)c1ccc(NC(=O)CC#N)cc1)c1ccccc1 (centres undefined)	-2%	-8%
68	COc1ccc(/C=C/C(=O)Oc2ccc(C)c(C)c2)cc1OC	i	2%
69	Cc1c(C(=O)C(=O)N2c3ccc(F)cc3CCC2C)c2ccccc2n1C (centres undefined)	u	u
70	N#CCCCn1c(=O)oc2ccccc21	16%	0%
71	O=S(=O)(Nc1ccc(-n2cccc2)cc1)c1ccccc1	-3%	-23%
72	CCCCC(=O)N(C)c1c(CC)nc2c(OCCC)cccn12	-7%	-7%
73	CCN(CC)CC(=O)NC12CC3CC(CC(C3)C1)C2	-10%	17%
74	O=C(Cn1nnc2ccccc2c1=O)Nc1ccc2c(c1)CCC2	-12%	-15%
75	COc1cc(/C=C/C(=O)OCC(=O)Nc2ccc(S(=O)(=O)N3CCCC3)cc2)ccc1O	-10%	-18%
76	CC(C)NC(=O)C1(C)CCCCN1Cc1cccc(C(F)(F)F)c1 (centres undefined)	5%	5%
77	Cc1ccccc1Cn1c(=N)n(CC(=O)c2ccc([N+](=O)[O-])cc2)c2ccccc21	i	-7%
78	COc1cc(N2CCCC2)ccc1[N+](=O)[O-]	-11%	-6%
79	O=C1c2ccccc2C(c2nnnn2Cc2ccccc2)N1CCc1ccccc1F (centres undefined)	-6%	-1%
80	CCc1ccc(NC(=O)C(=O)NNC(=O)c2cccs2)cc1	i	-19%
81	Cn1cccc1/C=C1\SC(=S)N(NC(=O)c2ccc(F)cc2)C1=O	i	7%
82	CN(C)c1nc(C#N)nc(N(C)C)n1	10%	-10%&-2%
83	Cc1cc(C)c2oc(-c3ccc(C)c(NC(=S)NC(=O)/C=C/c4ccco4)c3)nc2c1	x	-11%
84	Cc1cccc(NC(=O)c2cc(S(=O)(=O)N3CCOCC3)cn2C)c1C	i	-3%

# At a glance, some entries already given.
no.	mol	Vaccinia mCherry	Vaccinia Venus
75	COc1cc(/C=C/C(=O)OCC(=O)Nc2ccc(S(=O)(=O)N3CCCC3)cc2)ccc1O	-10%	-18%
76	CC(C)NC(=O)C1(C)CCCCN1Cc1cccc(C(F)(F)F)c1 (centres undefined)	5%	5%
77	Cc1ccccc1Cn1c(=N)n(CC(=O)c2ccc([N+](=O)[O-])cc2)c2ccccc21	i	-7%
78	COc1cc(N2CCCC2)ccc1[N+](=O)[O-]	-11%	-6%
79	O=C1c2ccccc2C(c2nnnn2Cc2ccccc2)N1CCc1ccccc1F (centres undefined)	-6%	-1%

# Further records:
no.	mol	Vaccinia mCherry	Vaccinia Venus
85	COc1cccc(CNC(=O)CCNS(=O)(=O)c2ccc3c(c2)CCCC(=O)N3)c1	1%	7%
86	O=C1CC(c2ccco2)CC(O)=C1C=NCC1NCCc2ccccc21 (centres undefined)	-21%	-11%
87	CCCCC(=O)N1C/C=C\C(c2ccc(OC)cc2)N(Cc2ccc(F)cc2)C(=O)C1 (centres undefined)	i	-13%
88	CCCn1c(SC(C)C(=O)NC2CCCC2)n[nH]c1=O (centres undefined)	-3%	-10%
89	COc1cccc(CN2CCN(C(=O)COc3ccc4ccccc4c3)CC2)c1	x	-11%
90	COc1cc(/C=C2/S/C(=N/S(=O)(=O)Cc3ccccc3)NC2=O)c([N+](=O)[O-])cc1OC	21%[7.34 µM]	0%[7.34 µM]
91	Cc1ccc(C(=O)N/C(=C\c2sccc2C)C(=O)NCc2ccco2)cc1	x	-6%
92	CCc1cccc(OCCOC(=O)CNS(=O)(=O)c2ccc(NC(C)=O)cc2)c1	i	-12%
93	C[C@H]1CN([C@@H](C)CO)C(=O)CCCn2cc(nn2)CO[C@@H]1CN(C)C(=O)Nc1ccccc1F	10%	5%
94	CCCc1nc2c(sc3nc4c(cc32)COC(C)(C)C4)c(=O)n1CCN(CC)CC	-13%	-10%
95	CC(C)=CCc1ccc(O)c(=O)cc1C(C)C	3.2µM*	u
96	COc1ccc(/C=C2/CSC/C(=C/c3ccc(OC)c(OC)c3)C2=O)cc1OC	2.5µM*	u
97	Cn1nc(-c2ccccc2)c2cc([N+](=O)[O-])ccc21	u	-9%
98	CC(=O)Nc1ccc(NC(=O)c2cc(=O)c3ccccc3o2)cc1	-8%	0%&-5%
99	Cc1cc(C(F)(F)F)nn1CC(=O)NNC(=S)Nc1ccc(F)cc1	i	-8%
100	COc1cccc(CN2CC(C(=O)N(C)C3CCOCC3)CCC2=O)c1 (centres undefined)	u	-10%
101	CCC(=O)Nc1ccc(S(=O)(=O)NC[C@H]2O[C@@H](n3cnc4c(=O)[nH]c(N)nc43)[C@H](O)[C@@H]2O)cc1	7%	-10%
102	COc1ccccc1Nc1nc(-c2cccc(N3C(=O)c4ccccc4C3=O)c2)cs1	-13%	-3%
103	CC(C)c1ccccc1NC(=S)N(C)C	-1%[7.34 µM]	-22%[7.34 µM]
104	O=C(COC(=O)c1ccc([N+](=O)[O-])cc1Cl)NC(=O)c1ccccc1	-14%	-6%
105	CCOc1ccccc1N(C)C(=O)c1c2c(nc3ccccc13)C(=O)N(C1CCCCC1)C2	i	-17%
106	Cc1ccc(CSc2nc3ccsc3c(=O)n2Cc2ccccn2)cc1	i	1%
107	c1cnn(Cc2cnc(N3CCOCC3)s2)c1	i	-9%
